High-throughput results as filed in PubChem BioAssay.
Arbovirus anti: blocks arbovirus infection. arbovirus infection cell-based antiviral screen. inhibition, % at 10 µM. 200,000 tested, 0.37% active;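 active means inhibition from about 30%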;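 further: bluetongue infection of BSR cells; cell survival read as ATP light after 72 h; 0% = infected wells without compound and 100% = uninfected wells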
Mtb betalactam: beta-lactam sensitization of Mtb H37Rv; M. tuberculosis H37Rv growth with meropenem, percent inhibition; hits of this screen are not shown here; inhibition, % at 25 µM; 330,000 tested, 0.27% active;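 active means about 74% or more and at least 40 points above the plate without the antibiotic, then above 30% in a dose series; inconclusive means first-round hits that could not be retested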;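 further: growth measured after seven days incubation then overnight dye step; 0% = bacteria only wells and 100% = bacteria with antibiotic; twin plates without the antibiotic show which effects depend on it; some results filed as inactive read as strong as hits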
Mtb H37Rv: M. tuberculosis H37Rv growth inhibitors, H37Rv strain (AID 1626) | M. tuberculosis H37Rv growth inhibition; higher % means a stronger effect | 220,000 tested, 0.95% active | one-dose inhibition, % at 10 µM; IC50 in µM for titrated hits;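 active means confirmed in a dose series; inconclusive means inhibition above 80% but not taken into the dose series; inactive means below 80% or under 30% at every dose of the series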;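 further: bacteria incubated seven days before Alamar blue readout; 0% = bacteria only wells and 100% = bacteria with antibiotic wells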
RecA splice inh: blocks M. tuberculosis RecA intein splicing. cell-free RecA intein splicing, fluorescence. inhibition, %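 (about 9 µM by stock and volumes)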. 290,000 tested, 0.75% active. P9WHJ3; in the data active means inhibition above about 30%; inconclusive means no clear call, values can overlap the other calls;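 further: 0% = vehicle wells and 100% = reference inhibitor control wells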
Target sequence (P9WHJ3 whole entry, looked up, canonical isoform): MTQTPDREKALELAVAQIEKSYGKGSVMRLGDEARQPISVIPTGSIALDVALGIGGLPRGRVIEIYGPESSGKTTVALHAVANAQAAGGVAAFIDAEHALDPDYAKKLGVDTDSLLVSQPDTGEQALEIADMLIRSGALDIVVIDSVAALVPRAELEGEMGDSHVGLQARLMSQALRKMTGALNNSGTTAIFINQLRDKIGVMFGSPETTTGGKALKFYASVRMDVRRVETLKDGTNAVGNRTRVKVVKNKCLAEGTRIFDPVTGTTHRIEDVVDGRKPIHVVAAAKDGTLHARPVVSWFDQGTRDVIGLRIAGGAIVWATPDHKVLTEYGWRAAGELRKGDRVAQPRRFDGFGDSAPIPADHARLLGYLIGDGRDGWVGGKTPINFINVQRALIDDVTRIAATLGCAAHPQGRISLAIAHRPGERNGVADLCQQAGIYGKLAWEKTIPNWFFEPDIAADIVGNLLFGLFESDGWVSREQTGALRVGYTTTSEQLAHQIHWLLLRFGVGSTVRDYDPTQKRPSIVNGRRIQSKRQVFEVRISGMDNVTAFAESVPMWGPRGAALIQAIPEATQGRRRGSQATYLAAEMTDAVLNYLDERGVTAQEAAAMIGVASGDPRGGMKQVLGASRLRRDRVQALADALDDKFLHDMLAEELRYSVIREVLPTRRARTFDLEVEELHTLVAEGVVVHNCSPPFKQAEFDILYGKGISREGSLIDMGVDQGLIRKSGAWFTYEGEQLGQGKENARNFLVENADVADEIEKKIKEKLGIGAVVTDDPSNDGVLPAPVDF
YopH PTP inh: YopH (Yersinia) phosphatase inhibition; fluorescence Ex485/Em525; 140,000 tested, 0.16% active; inhibition, %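 (about 10 µM by stock and volumes)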;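 active means inhibition of 50% or more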;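 further: controls were vehicle for no effect and minimum signal wells for full effect; inactives centre near -20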
Arbovirus anti repeat: further read-out of Arbovirus anti, marked with its call; inhibition, %; measured here: 10K subset replicate screen; many hits read low in the repeat;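 first of two repeat runs on a subset; 0% = infected and 100% = uninfected wells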
The depositor's hits bear a star; ? = inconclusive; . = not tested or not shown.

SMILES | Arbovirus anti | Mtb betalactam | Mtb H37Rv | RecA splice inh | YopH PTP inh | others
Cc1ccsc1/C=N/Nc1ncnc2nc[nH]c12 | 9 | -4 | -5% | 0.6 | .
Cc1ccc(-c2nc3ccccn3c2NC(=O)c2ccco2)cc1 | -8 | 5 | 17% | -4.2 | -11
CCOc1ccc(NC(=O)COC(=O)C23CC4CC(CC(C4)C2)C3)c([N+](=O)[O-])c1 | 5 | -5 | 6% | 0.4 | -6
CCN(CC)C(=S)SCC(=O)Nc1ccc(F)cc1 | 2 | 8 | 0% | 2.9 | -38
O=C(NC1CCS(=O)(=O)C1)c1cnccn1 (configuration not stated) | -5 | 1 | . | -3.7 | 5
O=C(Oc1coc(CSc2ncccn2)cc1=O)c1cccc([N+](=O)[O-])c1 | 5 | 5 | 3% | -5.0 | .
CCOC(=O)c1cnc(SC2CC(=O)N(c3cccc(OC)c3)C2=O)nc1N (configuration not stated) | 2 | -16 | 0% | -1.4 | -30
CN(CCc1ccccn1)C1CCCN(S(=O)(=O)c2ccc(F)c(Cl)c2)C1 (configuration not stated) | . | -7 | . | 10 | .
c1coc(-c2nc3c4c5c(sc4ncn3n2)CCCC5)c1 | -3 | -9 | -3% | -0.1 | -31
N#C/C=C\Oc1ccc(Cl)cc1N | 3 | 97 | . | 11 | -21
CC(/C=C/c1ccccc1F)=N\NC(=O)c1ccc(Cl)cc1 | -8 | 76 | ? | 0.4 | .
O=C1CCN(C(=O)Nc2cccc(Cl)c2)N1 | 5 | 8 | -1% | -1.3 | -11
O=C(COc1cccc(C(F)(F)F)c1)Nc1ccc(S(=O)(=O)N2CCCC2)cc1 | 5 | -8 | 6% | 0.5 | -1
CCN(CC(=O)Nc1ccc2c(c1)OCCO2)C(=O)CC(NC(C)=O)c1ccccc1 (configuration not stated) | . | -5 | . | -1.2 | .
O=C(CS(=O)(=O)Cc1ccccc1)N1CCN(C(=O)c2ccco2)CC1 | 2 | 2 | -2% | 2.1 | -29
COc1ccc(N(C)C(=O)c2cc3c(s2)-c2c(C)cccc2OC3)c(OC)c1 | . | 6 | 1% | 33* | .
Cc1nnc(SCCc2ccccc2)[nH]c1=O | 12 | -2 | -3% | -1.8 | -29
N#Cc1sc(NCc2ccccn2)nc1Cl | . | -5 | . | -0.2 | .
O=C(CCc1ccccn1)N1CCCC(CNS(=O)(=O)c2cccs2)C1 (configuration not stated) | 2 | 5 | -10% | -0.8 | .
Cc1cc(OC(=O)c2ccccc2F)c([N+](=O)[O-])c(=O)[nH]1 | . | 1 | . | -9.9 | .
CCN(CC)CCCN=Cc1c(O)n(Cc2ccc(F)cc2)c(=O)[nH]c1=O | -1 | -7 | 0% | -0.5 | -12
Cc1ccc(NC(=O)c2ccc(N3C(=O)C4CC=C(Cl)CC4C3=O)cc2)cc1 (configuration not stated) | -4 | 2 | -16% | -0.1 | -20
CC(C)CCN1C(=O)CCC1(C)C(=O)NC1CCCCCCC1 (configuration not stated) | -3 | -5 | 1% | 2.3 | -10
Cc1ccc(-c2nc(CS(=O)CC(=O)NCc3ccc(F)cc3)c(C)o2)cc1 (configuration not stated) | . | -5 | . | 0.8 | .
CCOc1ccc2nc(C)cc(Nc3ccc(N4CCOCC4)cc3)c2c1 | 7 | 90 | 80% | . | 0
Following part:
SMILES | Arbovirus anti | Mtb betalactam | Mtb H37Rv | RecA splice inh | YopH PTP inh | others
CCOC(=O)CNC(c1ccccc1)c1cc(Br)ccc1NC(=O)OCC (configuration not stated) | -4 | -4 | -14% | -3.5 | -19
COc1cc(C(CCN2CCCCC2)c2c(OC)cc(OC)c3c(-c4ccccc4)cc(=O)oc23)cc(OC)c1OC (configuration not stated) | . | 72 | 10% | 4.1 | .
N#CC(C(=O)c1ccccc1)=C1SCCS1 | . | -1 | -13% | 5.4 | .
O=C(O)C(Cc1ccccc1)N1C(=O)/C(=C/c2cccnc2)SC1=S (configuration not stated) | . | 2 | 4% | 15 | .
COc1cc(OC)cc(C(=O)NC(C)c2cnn(-c3ccccc3C)c2C)c1 (configuration not stated) | -7 | -2 | -1% | 7.4 | .
Cc1ccc(CCn2c3c(c4ccccc42)CN(C)CC3)cn1 | 1 | -5 | 0% | -0.8 | -19
CCn1nc(C)c(CN2CCCC(C(=O)c3cccc(OC(C)C)c3)C2)c1C (configuration not stated) | -7 | 7 | -2% | 5.8 | .
CN(C)C(=O)CN1CCN(Cc2cn(C)nc2-c2ccc3c(c2)OCCO3)CC1 | -4 | -4 | -3% | -2.5 | .
CN(C)C(=O)c1ccc(NS(=O)(=O)c2ccc3c(c2)OCCO3)cc1 | . | -9 | . | -1.4 | .
Cc1cc(OCC(=O)Nc2nccs2)c2c(C)cc(=O)oc2c1 | . | 12 | . | 0.1 | .
O=C1N/C(=N\N=C\c2ccco2)SC1Cc1ccc(F)cc1 (configuration not stated) | 29 | 0 | 3% | -2.3 | .
O=C(Nc1nccs1)c1cc(-c2ccccc2)nn1-c1ccccc1 | 10 | -1 | 0% | 0.5 | -13
CC(=O)NC(=S)Nc1ccc(NC(=O)COc2ccc(C(C)C)cc2)cc1 | -9 | 86 | 49% | 1.6 | -38
O=C(CSc1nnc(-c2ccc(F)cc2)n1-c1ccccc1)NCCN1C(=O)CSC1=O | 3 | -9 | -6% | 2.2 | -26
CCCCCC(=O)Nc1nc(C)c(-c2csc(Nc3cc(OC)ccc3OC)n2)s1 | -17 | 98 | 0% | -1.6 | -7
Clc1ccc2c(N3CCCC3)ccnc2c1 | 3 | -8 | -5% | 0.7 | 1
CCOc1ccc(CN2CCN(Cc3cnn(CC)c3C)CC2CCO)cc1 (configuration not stated) | -10 | 1 | 3% | 2.5 | .
Cc1ccc(C)c(S(=O)(=O)N/N=C/c2ccc(N(C)C)cc2)c1 | -4 | 0 | -6% | -1.4 | .
CCC(=O)OCC(=O)c1c(N)n(Cc2ccccc2)c(=O)n(C)c1=O | -8 | -4 | 11% | -12 | -36
COc1ccc(N2CCC(CNC(=S)Nc3cc(C)cc(C)c3)C2)cc1 (configuration not stated) | . | 2 | 33% | 1.9 | .
CC(C)=C1SC(N2CCN(Cc3ccccc3)CC2)=NC1=O | -2 | 1 | -4% | 2.4 | -7 | Arbovirus anti repeat=-3
COc1ccccc1C(=O)N/C(=C\c1cn(S(=O)(=O)N(C)C)c2ccccc12)C(=O)N1CCCCC1 | . | 3 | . | 0.4 | .
O=C(c1ccc2c(c1)C(=O)N(c1ccc(Cl)cc1)C2=O)N1CCN(c2ccccn2)CC1 | . | -5 | -14% | 0.9 | -56
Cc1ccc(S(=O)(=O)N[C@@H](Cc2ccccc2)C(=O)N2CCC(C(=O)N[C@@H](CCC(N)=O)C(=O)O)CC2)cc1 | . | 0 | . | 0.7 | .
C=CCOc1ccc(CNC(C)(C)C)cc1OC | 7 | -3 | -3% | -2.4 | -14

In the list so far, 8 contain an aryl methoxy group.
SMILES | Arbovirus anti | Mtb betalactam | Mtb H37Rv | RecA splice inh | YopH PTP inh | others
CCOC(=O)c1cnc(SC2CC(=O)N(c3cccc(OC)c3)C2=O)nc1N (configuration not stated) | 2 | -16 | 0% | -1.4 | -30
COc1ccc(N(C)C(=O)c2cc3c(s2)-c2c(C)cccc2OC3)c(OC)c1 | . | 6 | 1% | 33* | .
COc1cc(C(CCN2CCCCC2)c2c(OC)cc(OC)c3c(-c4ccccc4)cc(=O)oc23)cc(OC)c1OC (configuration not stated) | . | 72 | 10% | 4.1 | .
COc1cc(OC)cc(C(=O)NC(C)c2cnn(-c3ccccc3C)c2C)c1 (configuration not stated) | -7 | -2 | -1% | 7.4 | .
CCCCCC(=O)Nc1nc(C)c(-c2csc(Nc3cc(OC)ccc3OC)n2)s1 | -17 | 98 | 0% | -1.6 | -7
COc1ccc(N2CCC(CNC(=S)Nc3cc(C)cc(C)c3)C2)cc1 (configuration not stated) | . | 2 | 33% | 1.9 | .
COc1ccccc1C(=O)N/C(=C\c1cn(S(=O)(=O)N(C)C)c2ccccc12)C(=O)N1CCCCC1 | . | 3 | . | 0.4 | .
C=CCOc1ccc(CNC(C)(C)C)cc1OC | 7 | -3 | -3% | -2.4 | -14

(more compounds)
SMILES | Arbovirus anti | Mtb betalactam | Mtb H37Rv | RecA splice inh | YopH PTP inh | others
Cc1nnc(NC(=O)c2oc3cc(C)c(C)cc3c2C)s1 | -2 | . | 0% | . | -44 | Arbovirus anti repeat=-2
O=C(CN1C(=O)CCC1=O)Nc1nc(-c2nc3ccccc3s2)cs1 | -1 | 3 | 8% | 2.3 | -32
CSCC[C@H](NC(=O)[C@H](Cc1ccccc1)n1c(=O)[nH]c2ccccc2c1=O)C(=O)NCC1CCC(C(=O)O)CC1 (some centres not stated) | . | -3 | . | 1.7 | .
COc1ccc(C)cc1NC(=O)NNC(=O)C(C)Oc1ccc(F)cc1Cl (configuration not stated) | . | -9 | . | -0.8 | .
O=C(CC1C(=O)N(c2ccc(Cl)cc2)C(=S)N1CCc1ccncc1)Nc1ccc(F)cc1 (configuration not stated) | -5 | 2 | -2% | . | -17
COC(=O)c1cc2oc(C)cc2n1CC(=O)Nc1ccc(OC)c(OC)c1OC | 0 | . | -7% | . | 4
CCn1ccnc1CN(C)C(=O)c1cc(COc2c(F)cccc2F)on1 | 5 | -2 | -3% | -1.6 | .
COc1ccc(-c2cn[nH]c2N)cc1OC | 2 | 7 | -2% | -1.1 | -9
CCc1nc(SCC(=O)Nc2ccccc2C(=O)OC)n[nH]1 | -6 | -9 | 9% | -0.8 | 25
Cc1cc(NS(=O)(=O)Cc2ccccc2)cc(C)c1OCC(=O)N1CCOCC1 | -3 | -9 | -2% | 10 | -22
CC1(C)C(=O)N(c2ccccc2)C1c1ccccc1O (configuration not stated) | . | 1 | . | 3.7 | .
COc1ccc(NC(=O)CSc2cc(C)nc3c(-c4ccccc4)cnn23)cc1 | . | 2 | -1% | -22 | .
O=C(COc1cc2oc(=O)c3c(c2cc1Cl)CCC3)NCC1CCC(C(=O)O)CC1 (configuration not stated) | . | 8 | . | -0.2 | .
Cn1c(SCC(=O)O)nnc1C1CCCCC1 | 12 | 3 | -2% | 0.4 | -29
COc1ccc(OC)c(NC(=O)CCn2ccnc2)c1 | . | -3 | . | 0.2 | .
Cc1ccc(C(=O)CSc2nnc(COc3ccc(C#N)cc3)n2-c2ccccc2)cc1 | 4 | -1 | 3% | -0.1 | 13
CCCS(=O)(=O)N1CCCC(C(=O)N2CCN(c3ccccc3)CC2)C1 (configuration not stated) | 7 | -7 | -11% | 4.3 | -11
Cc1ccc(-n2ncc3c(=O)n(CC(=O)N(C)C)cnc32)cc1 | . | 5 | . | 0.5 | .
Cc1cc(C(=O)N/N=C2\CCCC(C)C2)n[nH]1 (configuration not stated) | -7 | -6 | -8% | 0.4 | -23
COc1cc(OC)cc(C(=O)NC2CCN(Cc3nnnn3Cc3cccs3)CC2)c1 | -8 | 2 | -5% | 1.5 | -12
CC(=O)Nc1ccc(NC(=O)CSc2nnc(C3CC3)n2C)cc1 | 3 | -4 | -8% | -1.2 | -18
Cc1cc(C)c(NC(=O)CS(=O)CC(=O)Nc2ccc(-n3cnnn3)c(C)c2)c(C)c1 (configuration not stated) | . | -5 | . | 5.5 | .
O=C(N/N=C/c1cc(Br)cs1)c1ccc2c(c1)OCCO2 | . | -4 | 7% | 0.4 | .
COc1cc(C2NC(=S)NC(C)=C2C(=O)OC(C)C)ccc1OC(C)C (configuration not stated) | -1 | 4 | -20% | 4.6 | -22
Cc1ccc(NS(=O)(=O)c2ccc(C(=O)NCC3CCCO3)cc2)cc1 (configuration not stated) | 4 | -1 | 6% | -0.6 | .
Further structures follow:
SMILES | Arbovirus anti | Mtb betalactam | Mtb H37Rv | RecA splice inh | YopH PTP inh | others
CCCCn1c(N)c(NCc2ccccc2)c(=O)[nH]c1=O | 6 | 3 | 0% | -120 | .
Cc1ccc(-n2nc(C)c3c2OC(N)=C(C#N)C3c2ccc(C)o2)cc1 (configuration not stated) | 8 | -6 | -9% | 80* | -16
COc1ccc(Cl)cc1S(=O)(=O)n1ccnc1 | . | -5 | . | 0.6 | .
Cc1ccc(NC(=O)c2ccc(S(=O)(=O)N3CCC(C)CC3)cc2)cc1 | 0 | -17 | -2% | -0.4 | -6
CCOC(=O)C1CCN(C=C2C(=O)N(C)C(=S)N(C)C2=O)CC1 | 4 | 2 | -4% | 0.4 | -20
CC(=O)Nc1ccc2nc(-c3ccco3)[nH]c2c1 | 7 | 1 | 2% | 0.7 | .
O=S1(=O)CCOCCCN1Cc1ccccc1 | . | -5 | . | -2.0 | .
CCc1nnc(NC(=O)CCC(=O)N2CCN(S(=O)(=O)c3ccc(OC)cc3)CC2)s1 | . | 2 | . | -0.1 | .
CCOC(=O)CNC(=O)N1CCCC(N(C)CCc2ccccc2)C1 (configuration not stated) | . | -7 | . | 3.1 | .
NC(=O)CC(NC(=O)c1ccccc1)c1ccc(NCCCN2CCCC2=O)c([N+](=O)[O-])c1 (configuration not stated) | . | 6 | . | 0.8 | .

Only part of the results is shown; rates above refer to the full screens.
